Assay outcomes (PubChem)
ALR H2O2 inh: inhibitors of human ALR sulfhydryl oxidase, primary screen, biochemical, H2O2 detection, HRP-luminol luminescence, single point. FAD-linked sulfhydryl oxidase ALR (Homo sapiens), P55789. purified ALR, DTT oxidation. inhibition, % (test concentration not listed). 3.8% of 290,000 active. AID 485317, 2010;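 active = mean and each replicate at 75% or more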;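 also: stock transfer was 7.5 nL into about 7.5 µL; 0% = neutral wells and 100% = wells with inactivated enzyme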
Target sequence (P55789 whole entry, looked up): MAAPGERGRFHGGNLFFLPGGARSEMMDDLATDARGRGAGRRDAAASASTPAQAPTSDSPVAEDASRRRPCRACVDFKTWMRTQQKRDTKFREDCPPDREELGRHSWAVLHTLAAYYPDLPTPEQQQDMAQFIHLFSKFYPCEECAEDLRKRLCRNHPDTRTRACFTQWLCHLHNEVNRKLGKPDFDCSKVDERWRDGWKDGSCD
UCH37 DUB inh: inhibitors of human UCH37 deubiquitinase, primary screen, biochemical, Ub-AMC cleavage, fluorescence; Ubiquitin carboxyl-terminal hydrolase isozyme L5 (Homo sapiens), Q9Y5K5; purified proteasome/UCH37; inhibition, % (no concentration beside the values); 0.33% of 330,000 active; AID 588478, 2011;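 active = mean of two replicates above 20%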;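 also: 0% = compound-free wells with enzyme and 100% = wells lacking proteasome; stock transfer was 100 nL into about 20 µL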
Target sequence (Q9Y5K5 whole entry, looked up): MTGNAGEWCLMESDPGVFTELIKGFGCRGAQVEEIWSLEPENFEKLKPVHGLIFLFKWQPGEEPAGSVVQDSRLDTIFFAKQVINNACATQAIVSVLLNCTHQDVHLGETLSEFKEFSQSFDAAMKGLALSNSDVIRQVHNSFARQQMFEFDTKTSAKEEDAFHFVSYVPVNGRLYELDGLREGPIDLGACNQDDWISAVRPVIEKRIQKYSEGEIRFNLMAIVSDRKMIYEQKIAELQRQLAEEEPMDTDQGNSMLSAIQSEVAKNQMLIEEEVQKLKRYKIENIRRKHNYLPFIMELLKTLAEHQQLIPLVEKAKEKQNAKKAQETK
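Material: Human UCH37 enzyme supplied as purified proteasome complex | Schedule: 30 min preincubation with enzyme, 25 min cleavage at room temperature | Detection: AMC fluorescence 355/460 nm | Measure: % inhibition of Ub-AMC cleavage fluorescence | Controls: Wells without proteasome as full block, compound-free enzyme plus substrate as uninhibited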
E coli growth: E. coli growth inhibition, primary screen, OD600; Escherichia coli growth, 23 h; active compounds read low; OD600 absorbance (concentration not given with the values); 0.21% of 330,000 active;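 active = OD600 absorbance below the run mean of sample wells minus 3.6 SD, in any replicate, cut at about 0.56 in these data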;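 also: stock transfer was 300 nL into about 60 µL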
FGF22 binding: binders of human FGF22 protein, primary screen, FGF22 synaptogenesis inhibitor project, biophysical, thermal shift, single point | Fibroblast growth factor 22 (Homo sapiens), Q9HCT0 | recombinant FGF22 thermal shift, SYPRO orange fluorescence; percent of sucrose octasulfate shift, DMSO zero | calls only at 9.99 µM | 1.5% of 340,000 active | AID 651658, 2012;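 active = melting point raised past a set limit in the mean and every replicate; three in four hits are not shown here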
Target sequence (Q9HCT0 whole entry, looked up): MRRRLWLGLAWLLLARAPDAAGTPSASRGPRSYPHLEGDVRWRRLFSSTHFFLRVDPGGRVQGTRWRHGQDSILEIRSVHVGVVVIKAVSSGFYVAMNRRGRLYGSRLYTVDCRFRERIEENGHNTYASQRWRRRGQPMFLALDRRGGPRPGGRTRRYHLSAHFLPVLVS
HNF4A DNA FP: change in binding of human HNF4A to DNA, primary screen, biochemical, fluorescence polarization, FITC-DNA | 1 h | activity change, % at 10 µM | 0.3% of 360,000 active; in the data active = activity change above about 30%, passing the limit was not always enough;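 also: controls were the assay level and a saturating level of protein; the project sought stronger binding though the title names inhibitors; some compounds called inactive have numbers as strong as hits; positive values seem to mean higher polarization but the record does not say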
rRNA inh HTS: reduced GFP signal of wild-type E. coli, primary screen, bacterial rRNA inhibitor project, GFP/RFP fluorescence, OD600, single point | E. coli WT GFP vs humanized-ribosome RFP mutants, 24 h; active compounds read low; DMSO median 0, no signal -100 | GFP signal change (wild-type ribosome), % (test concentration not listed) | 1.6% of 350,000 active | AID 720706, 2013;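 active = significant combined selectivity score with lowered wild-type GFP, culture density cut under 30%, mutant RFP and density less affected; inactive = any of these conditions unmet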; also: one replicate is shown; some compounds called inactive have numbers as strong as hits
Beta2AR agonist: beta2AR agonists driving receptor internalization, primary screen, cell-based, FAP fluorogen, flow cytometry. Beta-2 adrenergic receptor (Homo sapiens), P07550. Am2.2-beta2AR cells; reference of the scale not given here. response, % (test concentration not listed). 0.43% of 340,000 active;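 active = response above a set limit, near 3 SD of response in nonfluorescent compounds, cut at about 42% in these data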;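 also: stock transfer was 100 nL into about 11 µL; a reference agonist was the positive control; negative values mostly stem from fluorescent compounds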
rRNA inh HTS OD600: recorded beside rRNA inh HTS, whose call it bears; OD600 change, %; measured here: OD600 growth;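 optical density of the mix in the first replicate; 0 = DMSO median and -100 = no signal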
rRNA inh HTS RFP: second read-out of rRNA inh HTS, no call of its own (marks repeat the call); RFP signal change, %; measured here: RFP humanized mutant strains;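 first replicate; 0 = DMSO median and -100 = no signal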
Starred values were filed as active, the others as inactive; i = inactive; . = no result given. Some of the compounds tested. The share of hits here may be higher or lower than overall.

#	SMILES	FGF22 binding	HNF4A DNA FP	rRNA inh HTS OD600	rRNA inh HTS	E coli growth	rRNA inh HTS RFP	ALR H2O2 inh	Beta2AR agonist	UCH37 DUB inh
1	O=C(O)c1cc(OCc2ccccc2)cc(OCc2ccccc2)c1	i	2.0	-10.2	-11.7	0.693	-2.2	2.3	-6.2	1.9
2	Cc1cc(Br)ccc1NC(=O)CN1CCN(c2ccccn2)CC1	i	-0.8	-14.9	-10.7	0.627	-3.9	-11.4	-17.2	3.3
3	O=C(c1cccc(C(F)(F)F)c1)C1CCCN(Cc2ccc(OCCO)cc2)C1 (stereo unspecified)	i	-2.8	-8.3	-4.3	0.637	1.6	-1.1	-4.1	1.0
4	CC(Oc1cccc(Cl)c1)C(=O)NCc1ccc(S(N)(=O)=O)cc1 (stereo unspecified)	i	2.0	0.7	0.5	0.641	0.4	-12.2	-1.8	-0.8
5	COc1ccc(-c2ccc(C(=O)NCCc3ccccc3)c3occc23)c(C)c1	i	-0.8	4.1	-0.3	.	-3.0	.	.	.
6	COc1ccc(C(=O)NCC(=O)N/N=C/c2cccc(OC(=O)c3ccco3)c2)cc1OC	i	0.4	8.8	14.2	.	0.6	6.7	-3.0	.
7	CCOC(=O)CNCCC(=O)c1ccc(Br)cc1	.	2.3	.	.	0.654	.	18.3	14.8	0.2
8	CN(C)c1ccc(NC(=O)c2ccc3nsnc3c2)cc1	.	1.1	.	.	0.683	.	51.7	4.2	2.1
9	COC(=O)C1(C)CC1(c1ccccc1)c1ccccc1 (stereo unspecified)	i	-3.5	11.9	2.0	0.688	1.5	-21.2	10.8	4.7
10	COc1ccc(-c2nc3ccccn3c2/N=C/c2ccc(OC)c(OC)c2)cc1O	i	-1.6	6.6	10.6	.	-5.7	.	-6.1	.
11	Cc1c(NC(=O)Nc2ccc(Cl)cc2)c(=O)n(-c2ccccc2)n1C	.	3.0	.	.	0.698	.	-7.4	-0.1	-2.1
12	CCOC(=O)c1c(-c2ccccc2)csc1NC(=O)CCN1CCOCC1	.	-3.9	.	.	0.671	.	3.2	-4.0	4.5
13	COc1ccc(Cn2nnnc2CN2CCC(c3nc4ccccc4s3)CC2)cc1	.	2.9	.	.	0.712	.	-4.3	-10.2	3.9
14	COc1ccc2c(ccc[n+]2CC(=O)c2ccccc2)c1	i	-0.4	20.7	20.2	0.702	4.2	10.6	-3.2	-67.4
15	COc1ccc(OC)c(-c2cc(C(=O)N/N=C/c3cc(OC)c(OC)cc3OC)c3ccccc3n2)c1	.	0.8	5.5	18.3	.	0.8	-1.1	15.1	.
16	C/C(=N\NC(=O)c1ccncc1)c1ccc(N2CCOCC2)cc1	i	1.1	15.0	15.5	.	-1.4	60.1	4.4	.
17	CC(C)(C)c1ccc(S(=O)(=O)N2CCCCC2C(=O)NCc2ccccn2)cc1 (stereo unspecified)	i	-5.2	-28.1	-7.4	0.756	-2.1	-31.5	0.9	5.3
18	O=[N+]([O-])c1cccc2ccc(N3CCOCC3)nc12	i	2.2	-37.2	-32.2	0.68	-5.6	-22.5	10.3	3.2
19	CC(C)(C)OC(=O)N1CCCN(C(=O)Nc2cccc(Cl)c2)CC1	i	2.9	.	.	0.684	.	-9.2	-2.7	2.9
20	Cc1cc(C)cc(NC(=O)c2ccc(NC(=O)C3C4CC5OC(=O)C3C5C4)cc2)c1 (stereo unspecified)	i	2.2	3.3	6.2	0.718	0.0	7.6	14.9	0.3
21	COc1cc(NC(=O)Cn2cnc(S(=O)(=O)N3CCOCC3)c2)cc(OC)c1OC	i	4.0	9.1	12.8	0.669	3.0	4.0	-3.2	2.2
22	NC(Cc1ccc(C(F)(F)F)cc1)c1csc(Nc2ccc(C(=O)NCCCO)cn2)n1 (stereo unspecified)	i	-3.5	-54.3	-29.3	.	-2.0	.	.	.
23	Cc1cn(C(C)C)c(=O)n(-c2ccccc2)c1=O	i	-1.5	7.0	6.7	0.674	6.0	.	-1.5	-1.3
24	Cc1ccc(-c2nnc3n2N=C(c2ccccc2Br)CS3)cc1	.	0.1	.	.	0.716	.	-3.4	-4.5	4.8
25	Cc1ccc([C@@H]2CC(=O)[C@@H]3CN(S(=O)(=O)c4ccc(C)cc4)[C@H](c4ccccc4F)C[C@@H]3N2S(=O)(=O)c2ccc(C)cc2)cc1	i	3.8	10.1	10.1	.	-1.1	.	.	.

Arranged by the number under rRNA inh HTS (low to high): 3 of the compounds above
#	canonical_smiles	rRNA inh HTS
22	NC(Cc1ccc(C(F)(F)F)cc1)c1csc(Nc2ccc(C(=O)NCCCO)cn2)n1 (stereo unspecified)	-29.3
23	Cc1cn(C(C)C)c(=O)n(-c2ccccc2)c1=O	6.7
25	Cc1ccc([C@@H]2CC(=O)[C@@H]3CN(S(=O)(=O)c4ccc(C)cc4)[C@H](c4ccccc4F)C[C@@H]3N2S(=O)(=O)c2ccc(C)cc2)cc1	10.1

(listing goes on)
#	SMILES	FGF22 binding	HNF4A DNA FP	rRNA inh HTS OD600	rRNA inh HTS	E coli growth	rRNA inh HTS RFP	ALR H2O2 inh	Beta2AR agonist	UCH37 DUB inh
26	COc1ccc(CCC(=O)Nc2ccc3c(c2)OCCO3)cc1	.	-0.9	.	.	0.677	.	-6.9	-4.1	-1.7
27	CCOC(=O)c1ccc(S(=O)(=O)NNC(=O)COc2ccc(C)cc2)cc1	i	1.4	.	.	0.689	.	-24.3	2.0	4.3
28	CN(C)c1ccc(CNc2ncnc3sccc23)cc1	i	5.3	4.4	1.4	0.648	2.5	-0.6	2.5	3.8
29	CC1=C(C(=O)N2CCCCCC2)CC(CC(=O)NC2CCCC2)C(=O)N1Cc1ccc(F)cc1 (stereo unspecified)	i	4.0	20.9	7.5	.	5.0	.	.	.
30	O=C(COC(=O)c1cccc(OC(F)F)c1)Nc1cccc(S(=O)(=O)N2CCCC2)c1	i	3.7	-18.5	-11.7	0.669	0.0	-4.5	-5.3	1.2
31	Cc1cc(C)c(NC(=O)COC(=O)/C=C/c2cccc(C(F)(F)F)c2)c(C)c1	i	-0.4	11.4	6.5	0.717	-1.6	.	4.7	5.2
32	COc1cccc(-c2nc(CS(=O)(=O)CC(=O)Nc3ccc(F)cc3F)c(C)o2)c1	i	-22.6	7.4	4.9	0.701	0.8	-20.6	3.1	3.3
33	COc1ccc(C2OC(=O)CC2C(=O)NC(C)C)cc1 (stereo unspecified)	.	2.0	.	.	0.747	.	4.1	6.8	3.1
34	NS(=O)(=O)c1ccc(CCNc2ccn3nc(-c4ccc(OCCN5CCOCC5)cc4)cc3n2)cc1	i	4.5	2.9	-0.8	.	0.0	.	.	.
35	O=C1c2ccccc2C(c2nnnn2-c2ccc3c(c2)OCCO3)N1Cc1cccnc1 (stereo unspecified)	i	-0.3	13.9	21.2	.	1.5	.	.	.
36	CC(=O)N1CC2(NC(=O)c3ccccc3N2)c2ccccc21 (stereo unspecified)	i	0.7	2.4	8.2	0.739	-1.9	.	-0.5	-479.1
37	COc1ccc(-c2cc(C)no2)cc1S(=O)(=O)N1CC(=O)Nc2ccccc21	i	-1.0	0.4	-0.8	0.667	-1.0	-9.3	14.4	-2.8
38	COC(=O)c1sc(N)c(C(=O)OC)c1COC(=O)CNS(=O)(=O)c1ccc(C)cc1	.	4.3	.	.	0.651	.	-5.3	-1.3	-3.6
39	CCCCCC(=O)N1C[C@@H](n2cc(C3CC3)nn2)[C@H](O)C[C@@H]1c1ccc(Cl)cc1	i	6.1	-27.9	-17.6	.	0.2	.	.	.
40	O=c1[nH]c(C2CCN(S(=O)(=O)Cc3ccccc3)CC2)nc2c1nnn2Cc1cccc(Cl)c1	i	1.8	-25.8	-12.1	0.705	-1.6	-3.7	4.8	3.3
41	Cc1onc(-c2ccccc2)c1-c1n[nH]c(=S)n1-c1ccccc1Cl	.	-3.8	.	.	0.694	.	29.6	16.0	3.7
42	CC(=O)c1ccc(OCC(=O)N(C)C2CCS(=O)(=O)C2)cc1 (stereo unspecified)	i	-5.2	23.0	6.1	.	-1.1	.	.	.
43	COc1ccc(/C=N/n2cncn2)cc1Cn1cc([N+](=O)[O-])cn1	i	0.5	5.5	12.9	.	0.0	24.2	6.3	.
44	c1ccc(-c2ccccc2OCCCN2CCOCC2)cc1	i	3.1	-8.2	5.1	0.654	-0.2	-0.3	11.7	-1.7
45	Cc1cccc2sc(NNC(=O)c3cc(-c4cccs4)nc4ccccc34)nc12	i	5.9	-4.2	-5.5	.	-1.1	3.3	16.8	.
46	CCCCCn1nc(C)c(/C=N/NC(=O)c2ccoc2C)c1C	.	-1.3	.	.	.	.	-5.2	-4.5	.
47	COc1ccc2c(c1)-c1nc(NC(=O)c3cccs3)sc1CC2	.	3.6	.	.	0.725	.	-22.6	26.4	-1.3
48	CCOC(=O)c1c(NC(=S)N2CCOCC2)sc2c1CCN(C(=O)OCC)C2	i	-3.6	2.4	-7.9	.	3.9	.	2.3	.
49	COc1ccc(N2CCN(C(C)C(=O)N3CCCC3)CC2)cc1 (stereo unspecified)	i	-1.3	19.9	19.1	0.742	-0.6	42.5	1.2	4.8
50	COc1cccc(C2=CC(=O)C[C@H](c3ccc4c(c3)OCO4)C2)c1OC	.	2.9	.	.	.	.	2.6	-3.2	1.5

Following part:
#	SMILES	FGF22 binding	HNF4A DNA FP	rRNA inh HTS OD600	rRNA inh HTS	E coli growth	rRNA inh HTS RFP	ALR H2O2 inh	Beta2AR agonist	UCH37 DUB inh
51	CC1CN(S(=O)(=O)c2cccc(C(=O)Nc3ccccc3N3CCCC3)c2)CC(C)O1 (stereo unspecified)	i	3.2	-4.1	-3.7	0.608	2.1	96.5*	15.5	1.9
52	CCn1c(=S)sc2c(=O)n(CC(=O)Nc3cccc(Br)c3)c(C)nc21	i	-0.7	-68.6	-20.4	0.718	19.5	-0.1	0.9	4.1
53	[S-]c1nnc(-c2ccc(Br)cc2)n1-c1ccccc1.[Zn+2]	i	4.8	.	.	0.708	.	-0.9	-2.2	1.5
54	N/C(=N/O)C(c1ccccc1)c1ccccc1	.	-1.1	.	.	.	.	2.8	-59.3	.
55	Cc1ccc(OCC(O)CNCc2ccc(F)cc2)cc1 (stereo unspecified)	i	0.0	5.6	16.3	0.671	2.4	-10.5	2.7	3.1
56	Cc1oc(-c2ccccc2)nc1Cn1cccc1C1=NC(c2ccccc2)CO1 (stereo unspecified)	.	-3.2	.	.	0.702	.	-8.6	-0.8	-0.9
57	COc1ccc(NC(=O)c2ccc(-c3ccc(-c4noc(C)n4)cc3C)cc2)cc1N1CCN(C)CC1	i	3.5	.	.	0.641	.	1.4	11.2	1.9

Exported with two lines to a compound: entries from further up.
Values run as follows: FGF22 binding | HNF4A DNA FP | rRNA inh HTS OD600 | rRNA inh HTS | E coli growth | rRNA inh HTS RFP | ALR H2O2 inh | Beta2AR agonist | UCH37 DUB inh
53. [S-]c1nnc(-c2ccc(Br)cc2)n1-c1ccccc1.[Zn+2]
 : i | 4.8 | . | . | 0.708 | . | -0.9 | -2.2 | 1.5
54. N/C(=N/O)C(c1ccccc1)c1ccccc1
 : . | -1.1 | . | . | . | . | 2.8 | -59.3 | .
55. Cc1ccc(OCC(O)CNCc2ccc(F)cc2)cc1 (stereo unspecified)
 : i | 0.0 | 5.6 | 16.3 | 0.671 | 2.4 | -10.5 | 2.7 | 3.1
